Screens deposited in PubChem BioAssay by several laboratories.
Env fusion inh = inhibitors of HIV-1 Env-driven cell-cell fusion, primary screen, HeLa-JRFL effector, CEM21 target cells, luciferase; inhibition, % at 12.3 µM; 360,000 compounds, 1.1% hits; AID 651610, 2012;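 active = mean replicate inhibition score of at least 50 and every replicate individually at or above 50; inconclusive = only one of the two criteria met; inactive = mean below 50 and not all replicates reaching 50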;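 note: 0% = plate neutral controls and 100% = maraviroc near 300 nM; one replicate is shown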
PABP FP inh = PABP poly(A) RNA binding inhibitors, primary screen, biochemical, fluorescence polarization, uHTS | 290,000 compounds, 1% hits | inhibition, % at 35 µM;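 active = 50% or more with normal probe brightness, or confirmed in later tests; inconclusive = above 50% with abnormal brightness, or retests that disagree; inactive = below 50% or failed in later tests; about a fifth of its hits are not listed in these tables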;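 note: calls also rest on retests at 20 µM and on dose response follow-up; controls were probe without protein and protein plus probe with vehicle; some compounds called inactive have numbers as strong as hits; many hits fall short of the cut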
Yeast UUG start = modulators of yeast start codon fidelity, primary screen, whole organism, S. cerevisiae, single point, plate reader | S. cerevisiae UUG-firefly luciferase reporter, luminescence/redox ratio | AID 602363, 2012 | activity score, % at 18.7 µM | 350,000 compounds, 0.13% hits;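 active = replicate mean at a twofold rise or more, about +100% in these data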;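 note: firefly luciferase made from a UUG start codon reports start codon fidelity; reporter light over untreated wells divided by growth signal over untreated wells; some hits fall short of that in this replicate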
CSC inhib = cancer stem cell viability inhibitors, primary screen, luminescence; cancer stem cell-like cells viability; inhibition, % at 7.5 µM; 300,000 compounds, 1.1% hits;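 active = mean at 75% or more and at least half the replicates too; inconclusive = mean and replicates disagree; tested in HMLE shEcad cells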;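 note: 0% = median of negative and 100% = median of positive control wells; the first replicate is given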
MT1-MMP act inh = blockers of MT1-MMP proenzyme processing, primary screen, HT1080 RFP-PRO-GFP cells, GFP/RFP fluorescence. 360,000 compounds, 0.061% hits. Matrix metalloproteinase-14 (Homo sapiens), P50281. GFP/RFP ratio fluorescence, overnight; percent of plate control window, DMSO zero. GFP/RFP ratio change, % at 20 µM;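 active = GFP/RFP ratio change of at least 30% with cell ATP level not reduced by more than half and red fluorescence within 50% of control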; note: strong numbers were not always called active
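Assay system: HT1080 RFP-PRO-GFP cells. Benchmarks: DMSO vehicle wells and RFP-L50D-GFP reporter cell wells. Times: overnight cell settling, then overnight compound exposure, 37 °C, 5% CO2. Compound: 20 µM single dose, 1% DMSO. Read-out basis: GFP/RFP fluorescence ratio.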
eIF4H FP inh = human eIF4H binding inhibitors, primary screen, translation initiation inhibitor project, biochemical, uHTS, fluorescence polarization; Eukaryotic translation initiation factor 4H (Homo sapiens), Q15056; eIF4H fluorescence polarization binding assay; inhibition, % at 35 µM; 290,000 compounds, 0.94% hits; AID 2012, 2009;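 active = 50% or more with normal probe brightness, or confirmed in later tests; inconclusive = above 50% with abnormal brightness, or retests that disagree; inactive = below 50% or failed in later tests; about a fifth of its hits are not listed in these tables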;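 note: calls also rest on retests at 20 µM and on dose response follow-up; 0% = protein and probe with vehicle and 100% = probe without protein; strong numbers were not always called active; many hits fall short of the cut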
Rce1 inhib = yeast Rce1p protease inhibitors, primary screen, biochemical, fluorescence, cell-free homogeneous | CAAX prenyl protease 2 (Saccharomyces cerevisiae (strain ATCC 204508 / S288c)), Q03530 | yeast membranes, quenched prenylated peptide cleavage fluorescence | AID 2563, 2010 | calls only | 290,000 compounds, 0.27% hits;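 active = fall in fluorescence gain of 50% or more versus controls, with final raw signal at or below 3038400; inconclusive = same 50% fall but final raw signal above 3038400; inactive = fall in fluorescence gain under 50%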;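 note: plate controls were neutral control wells for no effect and wells lacking membranes for full effect; tested at 10 µM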
Target sequence (Q03530 whole entry, looked up): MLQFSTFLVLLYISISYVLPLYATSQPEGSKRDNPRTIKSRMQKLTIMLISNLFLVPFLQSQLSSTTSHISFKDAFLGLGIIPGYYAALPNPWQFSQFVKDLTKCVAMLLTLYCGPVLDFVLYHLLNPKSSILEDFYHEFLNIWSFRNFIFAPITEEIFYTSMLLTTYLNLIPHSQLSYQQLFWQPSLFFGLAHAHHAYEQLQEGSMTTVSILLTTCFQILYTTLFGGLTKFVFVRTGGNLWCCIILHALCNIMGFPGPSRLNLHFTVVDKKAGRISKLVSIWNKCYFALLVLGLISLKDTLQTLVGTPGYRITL
eIF4H FP inh retest = further read-out of eIF4H FP inh, marked with its call; inhibition, %; compound at 20 µM; confirmation average;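 mean of two retest wells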
PABP FP inh retest = also measured in PABP FP inh; calls as there; inhibition, %; compound at 20 µM; confirmation repeats;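 mean of two retest wells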
MT1-MMP act inh RFP = recorded beside MT1-MMP act inh, whose call it bears; RFP signal change, %; measured here: RFP expression control read;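 0 = vehicle wells; hits needed this value within 50% of zero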
Numbers without * were called inactive; i = inactive; ? = inconclusive; . = not tested or not shown; & = joins results of further samples.

SMILES	Env fusion inh	PABP FP inh	Yeast UUG start	CSC inhib	MT1-MMP act inh	MT1-MMP act inh RFP	eIF4H FP inh	Rce1 inhib	others
CCOc1cc2c(cc1/C=C(/C#N)c1ccc(C(=O)O)cc1)OCO2	17	4	.	-2	3	8	4	i
O=C1COc2ccc(S(=O)(=O)Nc3ccc(OC(F)(F)F)cc3)cc2N1	19	4	-13	.	2	-3	3	i
C[C@@H]1CN([C@@H](C)CO)S(=O)(=O)c2ccc(Br)cc2O[C@@H]1CN(C)C(=O)c1ccccn1	-3	.	-12&3	.	3	7	.	.
CS(=O)(=O)N1CCC(C(=O)NCc2ccc3c(c2)OCO3)CC1	-4	0	-12	0	-1	0	-4	i
Cc1ccc2nc(-c3ccccc3Cl)cc(C(=O)Nc3cc(C)on3)c2c1	.	6	-14	4	-2	-7	7	i
O=C(N/N=C1/CC2C=CCC12)c1ccc(Br)o1 (centres undefined)	.	0	-16	10	-2	6	3	i
Cc1ccc(CSCCNC(=O)CN(c2cc(C)ccc2C)S(C)(=O)=O)cc1	33	5	.	-8	-2	-1	-5	i
O=c1cc(N2CCCC2)[nH]c(=O)n1-c1ccc(Cl)cc1	.	-8	-10	-19	-5	4	-6	i
O=C(N/N=C/c1cc(Br)ccc1O)c1cccc(N2CCCC2=O)c1	10	1	.	36	-8	-11	10	i
C=CCN=C(NC#N)SCC(=O)NC(C)(C)C	.	-4	-13	-8	-2	2	4	i
CCOc1ccc(C(=O)CCN2CCOCC2)cc1	5	5	-12	4	0	-1	-9	i
COc1ccccc1CNC(=O)[C@@H]1CCCN1S(=O)(=O)c1ccccc1F	-6	5	1	-9	2	1	3	i
COc1ccc(N(CC(=O)N/N=C/c2ccc3c(c2)OCO3)S(=O)(=O)c2ccc(NC(C)=O)cc2)cc1	10	1	.	-7	-3	-1	-9	i
NC(=O)c1cc2ccccc2o/c1=N\NC(=O)c1ccco1	-44	0	.	-21	3	2	-4	i
COc1ccc(C)cc1C1=CC(=O)C[C@H](c2ccc(F)cc2)C1	16	.	-13	14	-1	-1	.	.
O=C(NC(=S)NCc1ccco1)c1ccccc1[N+](=O)[O-]	-37	-6	-11	2	-3	2	-7	i
O=C(O)C(Oc1ccc2c3c(c(=O)oc2c1)CCC3)c1ccccc1 (centres undefined)	.	8	-8	-9	5	2	9	i
O=C(Nc1ccncc1)c1cccs1	.	-2	-10	-14	-10	-5	1	.
CCCC1=[N+](CC)CCn2c(C)ccc21	.	-8	-18	-3	-1	0	5	i
Cc1nn(-c2ccccc2)c2c1C(c1cccs1)C(C#N)=C(N)O2 (centres undefined)	.	7	-1	-5	12	-1	-6	i
Cc1ccc(C(=O)NN2CCOCC2)cc1	-17	-8	-15	-7	-4	1	-2	i
CC1(C(=O)NS(=O)(=O)c2ccccc2C(F)(F)F)CCN1C(=O)COc1ccc(Cl)cc1 (centres undefined)	-4	.	4	.	2	1	.	.
COc1ccc(NS(=O)(=O)c2ccc3c(c2)n(C)c(=O)n3C)cc1	.	0	-17	-7	1	0	4	i
Cc1ccc(-n2cccc2/C=C2\C(=N)N3N=C(C(C)C)SC3=NC2=O)cc1	18	-5	-2	10	-2	1	0	i
O=C(Nc1ccccc1)c1ccc(F)cc1F	-6	.	-6	9	3	3	.	i
(list continues)
SMILES	Env fusion inh	PABP FP inh	Yeast UUG start	CSC inhib	MT1-MMP act inh	MT1-MMP act inh RFP	eIF4H FP inh	Rce1 inhib	others
Cc1cc(C)cc(N(CC(=O)NC2CCC(C)CC2)S(=O)(=O)c2c(C)noc2C)c1 (centres undefined)	1	10	10	3	-3	3	-14	.
O=C(NCC(=O)N1CCN(Cc2ccccc2)CC1)c1ccc(Cl)cc1	-25	-19	-15	-3	-1	-3	-5	i
O=C(CCCn1c(=O)c2cccn2c2cccnc21)NCc1cccc(Br)c1	4	2	10	20	6	6	-7	i
CC(C)c1noc2ncc(C(=O)c3cc(Cl)cc(Cl)c3O)cc12	.	10	-6	23	-5	-13	-1	i
O=C(CCCN1C(=O)/C(=C/c2cccs2)SC1=S)NNC(=O)c1cccnc1	2	-14	-10	-1	1	0	-1	i
COC(=O)c1cc(NC(=S)N2CCN(C(=O)C3CCCO3)CC2)cc(C(=O)OC)c1 (centres undefined)	1	-12	-22	-2	0	1	-10	i
COc1ccc(C2/C(=C(/O)c3ccc(Cl)cc3)C(=O)C(=O)N2CCN2CCOCC2)c(OC)c1 (centres undefined)	.	3	.	-4	-2	5	-5	i
CCN(CC(=O)NCCCN1CCOCC1)S(=O)(=O)c1ccc(Cl)cc1	-8	9	-14	-5	-2	2	-6	i
Cc1ccc(CNc2ccc3c(c2)OCO3)cc1	.	?	2	23	-118	9	?	i
CCN1CCN(C(=O)CN(C)S(=O)(=O)c2ccc(Cl)cc2)CC1	-67	17	-11	1	3	-2	0	i
COc1ccc(-n2nc3c(c2NC(=O)C(C)Cl)CSC3)cc1 (centres undefined)	-2	-3	5	18	4	4	-21	i
CC1(C)CC(=O)C=C(Nc2ccc([N+](=O)[O-])cc2)C1	-14	7	-7	-11	0	0	3	i
NC1=NC(=Nc2cccc(Cl)c2)c2ccccc21	14	1	.	20	-5	-1	-8	i
COc1ccc(CN2C[C@@H](CO)O[C@@H](n3cnc4c(NC5CCC5)ncnc43)C2)cc1	21	.	-9	.	7	0	.	.
CCCCn1c(N)c(N(CCOC)C(=O)c2sc3cc(F)ccc3c2Cl)c(=O)[nH]c1=O	2	.	-13	-5	-1	-2	.	i
Cc1ccc(Cn2ccc(-c3cnc(-c4ccccc4)s3)n2)cc1	.	1	-18	-5	2	-26	-1	i
COC(=O)[C@]1(C)N[C@H](CN(C)C(=O)Nc2ccc(C)cc2)[C@@H]2C(=O)N(Cc3ccccc3)C(=O)[C@@H]21	64*	.	-19	.	2	5	.	.
O=C(Nc1nccs1)c1ccc2c(c1)C(=O)N(Cc1cccnc1)C2=O	1	0	-6	-7	0	4	4	i
O=C(COC(=O)c1ccc[nH]c1=O)Nc1cc(S(=O)(=O)N2CCCCC2)ccc1Cl	20	0	.	-6	.	.	1	i
COc1ccc(NC(=O)CSc2ncn[nH]2)c([N+](=O)[O-])c1	-54	1	-22	3	8	2	-3	i
COCCNC(=O)c1ccc2c(c1)S(=O)(=O)c1cc(Cl)ccc1C2=O	2	.	-17	-14	0	6	.	.
Cc1nc(C(=O)NNC(=O)Nc2ccccc2)cs1	2	-4	-7	2	2	-1	0	i
CC(=O)Nc1cc(NC(C)=O)cc(C(=O)NC(C)(C)C)c1	-81	0	-20	2	8	8	-1	.
COc1ccccc1CN1C[C@@H]2C[C@@H](c3cccc(O)c3)N3CCC[C@@]23C1=O	-6	5	.	7	-4	1	-12	i
NC(=O)c1c(NC(=O)c2c(F)cccc2F)sc2c1CCN(Cc1ccccc1)C2	?	-11	-11	26	-21	-1	13	i

3 compounds picked at random from the list so far, as already listed:
SMILES	Env fusion inh	PABP FP inh	Yeast UUG start	CSC inhib	MT1-MMP act inh	MT1-MMP act inh RFP	eIF4H FP inh	Rce1 inhib	others
COc1ccc(NC(=O)CSc2ncn[nH]2)c([N+](=O)[O-])c1	-54	1	-22	3	8	2	-3	i
CCCC1=[N+](CC)CCn2c(C)ccc21	.	-8	-18	-3	-1	0	5	i
C=CCN=C(NC#N)SCC(=O)NC(C)(C)C	.	-4	-13	-8	-2	2	4	i

Remaining list, next part.
SMILES	Env fusion inh	PABP FP inh	Yeast UUG start	CSC inhib	MT1-MMP act inh	MT1-MMP act inh RFP	eIF4H FP inh	Rce1 inhib	others
O=C1CCC/C(=N/Nc2ccc(Cl)cc2)C1	14	-3	.	23	3	7	20	.
COC(=O)c1cc(=O)[nH]c(SCc2cccc(C)c2)n1	-19	-4	-6	9	0	3	0	i
Cn1c(=O)cc(SCC(=O)N2CCN(C3CCCCC3)CC2)c2ccccc21	-15	.	-17	6	9	6	.	.
O=C1CCC2CN3CCc4c([nH]c5ccccc45)C3CC2C1 (centres undefined)	-1	.	-22	.	-77	6	.	.
O=C(N/C(=C\c1ccc(Br)cc1)c1nc2ccccc2[nH]1)c1ccco1	.	0	-21	13	0	-3	1	i
O=C(C(Cc1ccccc1)n1cccc1)N1CCc2ccccc21 (centres undefined)	-74	12	-10	21	-6	-9	-6	i
Cc1ccc([C@H]2C[C@H](n3cc(COC(=O)c4ccccc4)nn3)[C@@H](O)CN2CC2CCCCC2)cc1	-20	.	-1	.	3	-1	.	.
Cc1nonc1C1CCCN1C(=O)c1cc(COc2cccc(C(F)(F)F)c2)on1 (centres undefined)	4	-6	-11	7	1	-1	-4	i
N#CC1=C(N)N2C(=C(C#N)C1c1ccccc1)Sc1ccccc12 (centres undefined)	.	89	.	-5	.	.	40	i	eIF4H FP inh retest=10;PABP FP inh retest=-4
CCCCn1c(N)c(N(Cc2ccccc2OC)C(=O)c2cc(=O)[nH]c3ccccc23)c(=O)[nH]c1=O	-4	.	9	5	-9	-2	.	i
CCc1cc(C(=O)NC2CCCN(Cc3ccccc3F)C2)n(C)n1 (centres undefined)	0	0	.	.	-3	-21	-8	i
COc1ccc(CCNC(=O)Nc2ccc3c(c2)c(=O)n(C)n3CC=C(C)C)cc1OC	2	.	-11	.	-1	-1	.	.
Cc1ccc([N+](=O)[O-])c(OCCCNCC(C)O)c1 (centres undefined)	-1	46	.	12	2	0	15	i
Cc1ccc(S(=O)(=O)N2CCOCC2)cc1C(=O)NNC(=O)c1ccoc1C	-4	-2	.	-2	10	5	4	i
CC1CCCCN1C(=S)NC(=O)c1cc(Br)ccc1Cl (centres undefined)	-2	.	-18	-14	3	-5	.	.
COC(=O)C(O)(CC(=O)Nc1ccccc1OC)C(F)(F)F (centres undefined)	15	-2	-26	.	1	8	0	i
CN(C)CCN(C(=O)c1cccc(Cl)c1)c1nc2c(Cl)cccc2s1	25	-17	-12	12	3	13	-8	i
COc1cccc(OCCOCCOc2ccc(C)cc2[N+](=O)[O-])c1	-2	-11	.	7	3	0	-1	i
CN(C(=O)c1cccs1)c1ccc(OCC(=O)N2CCC(C(N)=O)CC2)cc1	-3	14	-16	-4	5	-7	-9	i
Cc1ccc(NC(=O)c2cc(=O)[nH]c3ccccc23)cc1	16	3	-11	-9	-5	-2	0	i
Cc1ccc(C(=O)N/C(=C\c2cccs2)C(=O)NCCc2c[nH]c3ccccc23)cc1C	25	-3	-13	-7	-2	-3	-8	i
O=C(COc1ccc(S(=O)(=O)N2CCCC2)cc1)NCC1CCCO1 (centres undefined)	0	8	.	3	2	2	4	i
O=C(Cc1cccc2ccccc12)Nc1ccc(N2CCOCC2)cc1	10	-7	.	-7	4	0	12	i
CC(C)(C)c1cc(C(=O)NCc2cccnc2)ccn1	22	7	-13	-12	4	-6	-6	i
C/C(CCC12CC3CC(CC(C3)C1)C2)=N\NC(N)=S	.	-4	-41	19	-17	-11	6	i
COc1ccccc1NC(=S)N1CCC(NC(=O)NC23CC4CC(CC(C4)C2)C3)CC1	29	6	-24	-15	-1	-2	-20	i
